Bioassay records (PubChem)
YopH PTP inh – YopH tyrosine phosphatase inhibitors, primary screen, biochemical, fluorescence Ex485/Em525. YopH tyrosine phosphatase [Yersinia enterocolitica]. inhibition, %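 (about 10 µM by stock and volumes)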. 140,000 compounds, 0.16% hits. AID 898, 2007;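 active means inhibition of 50% or more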;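 further: controls were vehicle for no effect and minimum signal wells for full effect; inactives centre near -20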
Mtb betalactam – beta-lactam sensitization of Mtb H37Rv, H37Rv; inhibition, % at 25 µM; M. tuberculosis H37Rv growth with meropenem, percent inhibition; hits of this screen are not shown here; 330,000 compounds, 0.27% hits;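 active means about 74% or more and at least 40 points above the plate without the antibiotic, then above 30% in a dose series; inconclusive means first-round hits that could not be retested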;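 further: growth measured after seven days incubation then overnight dye step; 0% = bacteria only wells and 100% = bacteria with antibiotic; twin plates without the antibiotic show which effects depend on it; some results filed as inactive read as strong as hits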
Mtb growth – M. tuberculosis H37Rv growth inhibitors, H37Rv strain (AID 1626); inhibition, % at 10 µM; hits with a dose series show IC50 in µM; 220,000 compounds, 0.95% hits; M. tuberculosis H37Rv growth inhibition; higher % means a stronger effect;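 active means confirmed in a dose series; inconclusive means inhibition above 80% but not taken into the dose series; inactive means below 80% or under 30% at every dose of the series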;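 further: bacteria incubated seven days before Alamar blue readout; 0% = bacteria only wells and 100% = bacteria with antibiotic wells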
RecA intein inh – Mtb RecA intein splicing inhibitors, primary screen, biochemical, fluorescence, HTS; Protein RecA (Mycobacterium tuberculosis (strain ATCC 25618 / H37Rv)), P9WHJ3; cell-free RecA intein splicing; inhibition, %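 (about 9 µM by stock and volumes)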; 290,000 compounds, 0.75% hits; AID 2221, 2009; in the data active means inhibition above about 30%; inconclusive means no clear call, values can overlap the other calls;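 further: 0% = vehicle wells and 100% = reference inhibitor control wells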
Target sequence (P9WHJ3 whole entry, looked up): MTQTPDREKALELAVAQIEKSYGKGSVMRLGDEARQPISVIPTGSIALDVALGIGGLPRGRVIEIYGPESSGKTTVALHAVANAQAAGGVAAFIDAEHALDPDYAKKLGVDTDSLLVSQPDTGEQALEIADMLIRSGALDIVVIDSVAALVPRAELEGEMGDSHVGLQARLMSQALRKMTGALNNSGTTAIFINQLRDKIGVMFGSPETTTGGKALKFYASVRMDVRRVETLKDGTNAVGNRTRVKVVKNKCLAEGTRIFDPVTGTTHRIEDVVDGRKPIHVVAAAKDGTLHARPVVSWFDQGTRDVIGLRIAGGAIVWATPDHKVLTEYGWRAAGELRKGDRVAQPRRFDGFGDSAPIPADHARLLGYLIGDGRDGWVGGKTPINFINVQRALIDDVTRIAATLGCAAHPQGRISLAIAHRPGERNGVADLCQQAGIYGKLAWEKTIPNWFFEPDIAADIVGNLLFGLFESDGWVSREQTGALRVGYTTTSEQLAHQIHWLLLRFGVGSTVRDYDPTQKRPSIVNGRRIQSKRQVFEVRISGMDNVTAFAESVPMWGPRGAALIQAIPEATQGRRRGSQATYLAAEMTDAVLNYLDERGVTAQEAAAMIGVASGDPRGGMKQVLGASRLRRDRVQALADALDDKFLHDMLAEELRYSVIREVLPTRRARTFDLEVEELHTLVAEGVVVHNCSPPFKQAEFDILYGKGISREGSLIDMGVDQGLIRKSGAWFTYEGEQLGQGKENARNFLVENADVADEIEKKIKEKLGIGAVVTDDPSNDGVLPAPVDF
Arbovirus inh – antivirals against arbovirus infection, primary screen, cell-based, full library, 10K replicate subset | arbovirus infection cell-based antiviral screen | inhibition, % at 10 µM | 200,000 compounds, 0.37% hits | AID 1251, 2008;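 active means inhibition from about 30%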;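 further: bluetongue infection of BSR cells; cell survival read as ATP light after 72 h; 0% = infected wells without compound and 100% = uninfected wells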
Arbovirus inh repeat – recorded beside Arbovirus inh, whose call it bears; inhibition, %; measured here: 10K subset replicate screen; many hits read low in the repeat;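 first of two repeat runs on a subset; 0% = infected and 100% = uninfected wells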
Active calls of the source: *; ? = inconclusive; nt = not tested or not shown. Only part of the results is shown; the hit share may differ from the screen's.

SMILES | YopH PTP inh | Mtb betalactam | Mtb growth | RecA intein inh | Arbovirus inh | others
CCOC(=O)N1CCN(C(=O)C2CCN(S(=O)(=O)c3cc(OC)ccc3OC)CC2)CC1 | nt | 5 | 7% | 0.7 | 1
COc1ccc(NC(=O)COc2ccc3c(c2)CCC3)cc1 | nt | 95 | 16µM* | -3.2 | 0
Cc1ccc(CNC(=O)CS(=O)Cc2nc(-c3ccccc3F)oc2C)cc1 (centres undefined) | nt | 0 | nt | 0.2 | nt
Fc1ccccc1C1c2cccn2CCN1C(=S)Nc1ccc(Br)cc1 (centres undefined) | nt | -1 | 0% | 7.0 | 6
CCc1nnc(NC(=O)c2ccc(S(=O)(=O)N(CCOC)CCOC)cc2)s1 | -53 | -3 | 52% | -0.2 | 7 | Arbovirus inh repeat=5
CC(=O)Nc1ccc(NC(=O)CN(c2cccc(C(C)=O)c2)S(C)(=O)=O)cc1 | nt | -7 | 7% | 5.1 | 3
COCCCNC(=O)CNC(=S)N(Cc1ccc(F)cc1)C1CCCCC1 | -31 | -8 | 3% | 1.7 | 1
COc1ccc2cc3cc(C(=O)NCc4ccccn4)oc3nc2c1 | -31 | 17 | nt | -6.4 | -6
O=[N+]([O-])c1cc([N+](=O)[O-])c2nonc2c1Nc1ccccc1O | nt | 99 | nt | 16 | nt
O=C(CSc1n[nH]c(-c2ccc(Cl)cc2Cl)n1)Nc1ccccn1 | -18 | 2 | nt | -1.5 | 26
COc1ccc(N(CC(=O)N2CCN(c3cccc(C)c3C)CC2)S(=O)(=O)c2c(C)noc2C)cc1 | nt | 5 | nt | 2.8 | nt
Cc1ccc(S(=O)(=O)CCC(=O)Nc2ccccc2Cl)cc1 | nt | 8 | nt | -2.1 | nt
COc1nc(Nc2ccc(-c3nc4ccccc4o3)cc2)nc(N2CCOCC2)n1 | -21 | -1 | -4% | -0.3 | nt
COCOc1ccc(C=O)cc1OCOC | nt | -2 | -4% | -5.0 | nt
COC(=O)c1ccccc1-n1c(C)nc(=O)c(-c2ccccc2)c1C | nt | 5 | nt | -2.2 | nt
CCCCNc1nc2ccccc2n1CC(=O)Nc1ccc2c(c1)OCCO2 | nt | -5 | -3% | -2.6 | nt
COc1cccc(OC)c1OCCOCCN1CCN(C)CC1 | nt | -5 | nt | 1.0 | nt
CC12CC3CC(C)(C1)CC(Nc1nc(N4CCOCC4)nc4ccccc14)(C3)C2 | nt | 22 | 8% | -0.8 | nt
CNC(=O)CSc1nccn1Cc1ccc(Cl)cc1 | nt | 4 | 4% | -7.8 | 2
O=C(COC(=O)CCCNC(=O)c1ccc(Cl)cc1)Nc1ccc(Br)cc1 | -24 | -6 | -3% | 0.1 | 4
CS(=O)(=O)Cc1ccc(C(=O)NC2CCN(Cc3ccccc3)C2)cc1 (centres undefined) | nt | 5 | nt | -3.1 | nt
CCC(=O)Oc1ccc(-c2nc(-c3cccnc3)no2)cc1 | -31 | 6 | -3% | 13 | 5
CCCCCCn1c(=O)[nH]c2c(c1=O)CCC2 | nt | -3 | -9% | -1.4 | nt
CC1=C(C#N)C2C(/C1=N/O)C2(C)C (centres undefined) | -26 | 2 | 4% | 0.3 | 2 | Arbovirus inh repeat=-2
COc1ccc(/C(N)=N/OC(=O)Cc2cccs2)cc1OC | -16 | -4 | 4% | 28 | -2

A section from further up, as a working copy:
SMILES | YopH PTP inh | Mtb betalactam | Mtb growth | RecA intein inh | Arbovirus inh | others
CCC(=O)Oc1ccc(-c2nc(-c3cccnc3)no2)cc1 | -31 | 6 | -3% | 13 | 5
CCCCCCn1c(=O)[nH]c2c(c1=O)CCC2 | nt | -3 | -9% | -1.4 | nt
CC1=C(C#N)C2C(/C1=N/O)C2(C)C (centres undefined) | -26 | 2 | 4% | 0.3 | 2 | Arbovirus inh repeat=-2
COc1ccc(/C(N)=N/OC(=O)Cc2cccs2)cc1OC | -16 | -4 | 4% | 28 | -2

Back to the main list; the two compounds before the break are reprinted first.
SMILES | YopH PTP inh | Mtb betalactam | Mtb growth | RecA intein inh | Arbovirus inh | others
CC1=C(C#N)C2C(/C1=N/O)C2(C)C (centres undefined) | -26 | 2 | 4% | 0.3 | 2 | Arbovirus inh repeat=-2
COc1ccc(/C(N)=N/OC(=O)Cc2cccs2)cc1OC | -16 | -4 | 4% | 28 | -2
CCC12OC(=N)C(C#N)(C1C)C(C#N)(C#N)C(c1ccccc1)O2 (centres undefined) | -13 | 26 | -3% | -54 | -12
O=C(NCC#CCOCc1ccccc1)c1ccccc1 | -29 | 0 | 2% | 0.6 | -2
CCc1ccccc1NC(=O)NCc1cccnc1 | nt | -2 | nt | -4.0 | nt
CCN1CCN(CCC(=O)Nc2ccc(C)cc2)CC1 | nt | 0 | nt | -1.1 | nt
COc1ccc(N=C2SCC(c3ccccc3)=NN2C)cc1 | nt | 4 | 4% | nt | nt
N#CCCn1cc(C(=O)O)c(-c2cc3ccccc3o2)n1 | -25 | 8 | -3% | -2.9 | 6
Cc1cc2ccccc2c(=O)n1CC(=O)NCC(=O)N1CCC2(CC1)OCCO2 | nt | 12 | -5% | 6.3 | -2
CCOc1ccc(C2OC34CCCCC3C(C#N)(C#N)C2(C#N)C(=N)O4)cc1OC (centres undefined) | -23 | 2 | -12% | -304 | 8
CC(=O)Nc1ccc(N2C(=O)CC(N3CCN(Cc4ccc5c(c4)OCO5)CC3)C2=O)cc1 (centres undefined) | -12 | -1 | 0% | 1.0 | 2
CCCCn1nnnc1SCC(=O)N1CCN(C(=O)c2ccco2)CC1 | -17 | -3 | -4% | 0.5 | 5
O=C(Nc1ccccc1)c1ccccc1C(=O)N1CCCCC1 | nt | -3 | -2% | -1.9 | 17
c1csc(-c2nc(NCCCN3CCOCC3)c3ccccc3n2)c1 | nt | 5 | nt | -0.9 | nt
CCSC1=NSC2=NC(=O)/C(=C\c3coc4ccccc4c3=O)C(=N)N12 | -36 | -6 | -5% | nt | 31*
NC(=O)c1nsc(C(=O)N(Cc2ccc(F)cc2)C(C(=O)NCC2CCCO2)c2ccc(F)cc2)c1N (centres undefined) | nt | -3 | nt | 0.9 | nt
COC(C(=O)N1CCC(n2nccc2NC(=O)C2CC2)CC1)c1ccccc1 (centres undefined) | nt | -7 | nt | -0.2 | nt
O=C1NC(=S)N/C1=C/c1ccc2ccccc2c1 | nt | 4 | nt | -1.2 | nt
O=c1c([N+](=O)[O-])cc(C(F)(F)F)cn1Cc1cccc(Cl)c1 | -10 | 40 | 8.6µM* | -1.8 | 8
COC1CCN(C(=O)c2ccc(OC3CCN(Cc4ccccn4)CC3)cc2)CC1 | nt | 7 | -6% | -2.0 | 3
CC(Sc1nc2ccc(C(=O)c3ccccc3)cc2[nH]1)C(=O)O (centres undefined) | nt | -1 | nt | 0.3 | nt
C=CCn1c(-c2oc3nc(-c4ccccc4)cc(-c4ccccc4)c3c2N)n[nH]c1=S | 2 | -3 | -6% | -4.4 | 8
O=C(Nc1nnc(C2CC2)s1)c1ccc(S(=O)(=O)c2ccccc2)cc1 | -6 | -2 | -18% | -1.9 | -7
Cc1ccc(C(=O)NCc2ccc(N3CCN(C(=O)OC(C)(C)C)CC3)cc2)cc1 | -19 | 0 | nt | -3.6 | 7
CC1CCN(c2ccccc2NC(=O)c2ccc(Br)o2)CC1 | nt | 16 | nt | 20 | nt
Cc1ccc(NC(=S)N(CCCN2CCOCC2)Cc2ccccn2)cc1Cl | -13 | -6 | 4% | 3.3 | 10
Cc1c(C)n(Cc2ccc(Cl)cc2)c2ccc(C(=O)NCCCN3CCOCC3)cc12 | nt | 3 | nt | 7.2 | nt

Later entries
SMILES | YopH PTP inh | Mtb betalactam | Mtb growth | RecA intein inh | Arbovirus inh | others
O=c1c2ccccc2c(C=Nc2cccc(O)c2)c(O)n1-c1ccc2c(c1)OCO2 | -33 | 8 | 4% | 0.1 | -4
Cc1c(Cl)cccc1NC(=S)NN | nt | 100 | 1% | -2.0 | 4
COc1cccc(NC(=O)c2ccn(C)n2)c1 | -33 | -5 | -1% | -0.3 | -4
COc1ccc(NC2CCCN(C(=O)c3cccnc3SC)C2)cc1OC (centres undefined) | nt | -4 | nt | -1.7 | nt
O=C1CCCc2nc3c(cc21)C(O)Oc1ccccc1-3 (centres undefined) | nt | 0 | -1% | 0.1 | 1
CCN(CCO)c1cc(Cl)nc(SC)n1 | -20 | -3 | 4% | -0.3 | 3
CN1CCN(C(=O)CC2C(=O)NCCN2Cc2ccc(-c3ccccc3)cc2)CC1 (centres undefined) | nt | -8 | 2% | 0.2 | 2
COC(=O)CCC(=O)NNC(=O)c1ccc([N+](=O)[O-])cc1 | nt | 10 | 0% | 5.4 | 9
CCCCNC(=O)OCCNC(=O)Oc1cccc(C)c1 | 13 | -16 | 4% | 1.3 | 4
CN(CC(=O)Nc1cccc2ccccc12)C(=O)c1cccc(S(=O)(=O)N(C)C)c1 | nt | -6 | -3% | -0.5 | nt
O=C(O)c1ccc(/C=N\Nc2ccc(S(=O)(=O)N3CCOCC3)cc2[N+](=O)[O-])cc1 | nt | -1 | -1% | -0.9 | nt
COc1ccc(S(=O)(=O)Nc2ccc(C)cc2)cc1OC | -29 | -5 | -1% | -0.1 | 2
CC1CCC(NC(=O)COC(=O)CCC(=O)c2ccc(Cl)s2)CC1 (centres undefined) | nt | -3 | nt | 0.0 | nt
COc1ccc(S(=O)(=O)Nc2ccc(Nc3ccccc3)cc2)cc1 | nt | -5 | nt | 7.7 | nt
COc1ccc(-c2nc3ncccn3c2Br)cc1 | nt | 3 | -1% | -4.1 | 1
CN(C(=O)c1ccc(S(=O)(=O)N2CCCCC2)cc1)C1CCS(=O)(=O)C1 (centres undefined) | nt | 5 | nt | 0.3 | nt
COc1cccc(NC(=O)c2cnc[nH]2)c1 | nt | 3 | nt | -1.7 | nt
COc1ccc(NC(C)=O)cc1S(=O)(=O)NC(Cc1ccccc1)C(=O)NCc1ccccc1C (centres undefined) | nt | -5 | nt | 0.2 | nt
C/C(CC(=O)Nc1cccnc1)=N\NC(=O)c1ccc([N+](=O)[O-])c(Cl)c1 | -43 | -1 | -1% | 61* | 2
Cc1cccc(NC2=NC(C)(C)N=C(N)N2)c1C | -32 | -13 | -7% | -1.1 | 5
O=C(Cn1ccc(=O)[nH]c1=O)Nc1ccc(C(=O)O)c(O)c1 | nt | 28 | 5% | -1.0 | nt
CCOC(=O)CCCCC(=O)c1[nH]c(=O)[nH]c1C[n+]1ccc(C)cc1 | nt | 2 | 1% | 5.5 | 0
C/C(=N/Nc1cc(-c2ccccc2)nc(-c2ccccc2)n1)c1ccc(O)cc1 | -20 | 98 | ? | -1.8 | -32
Cn1c(=O)[nH]c(=O)c2c1nc(Br)n2C/C=N/Nc1ccccc1 | nt | 46 | ? | 1.1 | -28
CCOP(=O)(c1ccc(N(C)C)cc1)C(O)c1ccc(OC)cc1 (centres undefined) | nt | -8 | nt | 0.8 | nt

Next section.
SMILES | YopH PTP inh | Mtb betalactam | Mtb growth | RecA intein inh | Arbovirus inh | others
Cc1ccc(S(=O)(=O)/N=C(/Nc2c(C)n(C)n(-c3ccccc3)c2=O)c2ccc(Cl)cc2)cc1 | -14 | -4 | 13% | -1.2 | -1
O=C(/C=C\c1cn(-c2ccccc2)nc1-c1ccccc1)Nc1nccs1 | -28 | 6 | 4% | 1.6 | -33
Cc1ccc(-c2nc(-c3ccccc3)no2)cc1 | 4 | 0 | 2% | -3.1 | 10
CCN(CC(=O)Nc1ccccc1SC)Cc1nc2ccccc2c(=O)[nH]1 | nt | 78 | 8% | 6.0 | nt
Cc1ccc(CSCCNC(=O)CSCc2ccc([N+](=O)[O-])cc2)cc1 | -50 | 7 | -4% | nt | -6
Cc1c(Cl)cccc1NC(=O)Cn1cc(C(F)(F)F)cc(Cl)c1=O | nt | 5 | 1% | -2.8 | -6
c1ccc(-c2nnc(OCC3CCCO3)c3ccccc23)cc1 (centres undefined) | nt | -3 | 6% | 6.0 | -1
CCOC(=O)c1cn2nc(SCc3ccccc3)nc2nc1C | nt | 65 | nt | -2.7 | nt
COc1ccc(OCc2cn3c(C)cc(C)nc3n2)cc1 | -23 | 0 | 0% | 1.2 | -4
O=C(CSc1nnc(NC(=O)c2ccco2)s1)Nc1cccc(F)c1 | nt | -19 | nt | -1.7 | nt
CC(=O)N1c2ccc(S(=O)(=O)N3CCCC(C(=O)NC4CCCC(C)C4C)C3)cc2CC1C (centres undefined) | nt | 3 | nt | 3.3 | nt
O=C(CN1CCCC1)Nc1cccc(Cl)c1 | nt | 6 | nt | -2.1 | nt
CCOC(=O)c1nnc(-c2cccs2)nc1NC(C)C | -31 | 14 | -7% | 0.0 | 10
CCOC(=O)CNC(=O)CSc1ncnc2c1cnn2-c1ccc(C)cc1 | -3 | -2 | -3% | -0.2 | 7
